# NPYLR7 agonist = mosquito NPYLR7 agonism; HEK293T NPYLR7/Galpha15, GCaMP6s calcium fluorescence; activation, % at 10 µM; actives 0.15% (n = 270,000); AID 1259423; in the data active = activation above about 40%;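 also: 0% = vehicle and 100% = reference agonist at the receptor; some compounds past the cut are filed as inactive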
# NPYLR7 agonist max-min = further read-out of NPYLR7 agonist, marked with its call; activation, %; measured here: Max-Min RFU normalised activation; some inactives read as strong as hits;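 span of the calcium signal over five minutes; 0% = vehicle and 100% = native peptide agonist; compound fluorescence can raise it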
# * = called active by the depositor; & = joins results of further samples.
SMILES,NPYLR7 agonist,NPYLR7 agonist max-min
c1cncc(NCCCNC2CCC3(CCNCC3)CC2)c1,16,12
CCN(CC)CCNCc1c(Cl)cccc1Cl,8,3
COc1cc(CN2CCC3(CC2)C(=O)N(CCCc2cccnc2)C(=O)N3CC(C)C)ccc1F,13,7
Cc1nc(S(=O)(=O)N2CCC3(CCN(C)CC3)C2)cn1C,6,3
COc1ccc(CN2CCC2(C)C(=O)Nc2cccc(Br)c2C)cc1 (stereo not drawn),11,3
Cc1cc(C)n(C(=C(C(Cl)=C(Cl)Cl)[N+](=O)[O-])n2nc(C)cc2C)n1,-14,-15
CC(C)C(NCc1nc2ccccc2c(=O)[nH]1)c1ccc(C2CCCCC2)cc1 (stereo not drawn),12,10
O=C(Nc1cc(Cl)ccc1N1CCOCC1)N1CCC(Nc2ccccc2)C1 (stereo not drawn),8,6
COC(=O)C(C)(C)NC(=O)CCC1CCCCN1C (stereo not drawn),5,12
CC(=O)NCCNc1nc2cc(-c3cccc(Cl)c3)sc2c(=O)n1C,5,4
CC1C(=O)N(c2ccc(F)cc2)CCN1C(=O)c1cccc(Br)c1 (stereo not drawn),2,4
Cn1cnnc1SCCNC(=O)c1ccc2c(c1)ncn2-c1ccccc1,1,0
CC(=O)N1CCN(c2ccc(C(=O)O)cc2[N+](=O)[O-])CC1,-8,-11
CNc1snc(C)c1C(=O)N(C)Cc1ccc(C(F)(F)F)cc1,5,2
c1sc2c(c1CN1CCN(C3CCCCC3)CC1)CCCC2,11,4
O=C1CSC(N2CCOCC2)=N1,-5,-6
O=C(CSc1nc2c(c(=O)n1-c1ccc(Cl)cc1)SCC2)OCc1ccccc1,1,36
c1cc2c(cc1N1CCC(N3CCOC4(CNCCOC4)C3)CC1)CCC2 (stereo not drawn),8,4
CCc1cccc2c(C(CC(=O)NC3CC3)c3ccc4c(c3)OCO4)c[nH]c12 (stereo not drawn),2,4
O=c1c(C2=NCCCCC2)c(Nc2ccccc2)[nH]n1-c1ccccc1,1,-1
O=C1NC(=S)N/C1=C\c1cc(Br)c(O)c(Br)c1,27,31
O=C(CC1NC(=O)c2ccccc21)NCc1cnc(-c2ccccc2)s1 (stereo not drawn),-7,-8
Cc1c(C(=O)NC2CCCC2)sc(=O)n1Cc1ccc(F)cc1,-11,-4
COc1cccc(Oc2cc(C(C)C)nc(SCc3cccc(C#N)c3)n2)c1,4,6

# Another view of 2 compounds above:
smiles | NPYLR7 agonist | NPYLR7 agonist max-min
c1cc2c(cc1N1CCC(N3CCOC4(CNCCOC4)C3)CC1)CCC2 (stereo not drawn) | 8 | 4
CCc1cccc2c(C(CC(=O)NC3CC3)c3ccc4c(c3)OCO4)c[nH]c12 (stereo not drawn) | 2 | 4

# New compounds follow
SMILES,NPYLR7 agonist,NPYLR7 agonist max-min
Cc1ccc(Cc2nsc(N3CCN(C(=O)c4cc(Cl)cc(Cl)c4)CC3)n2)cc1,-4,3
S=c1[nH]c2ccccc2c2c1CCC2,7,11
CC1(C)CC1(Cn1cnnc1)c1ccccc1 (stereo not drawn),21,5
COc1ccccc1N1CCN(C2CCCN(Cc3ccccc3-c3ccco3)C2)CC1 (stereo not drawn),-10,-10
O=C(Nc1nc(-c2ccc(Br)cc2)cs1)c1cc(Cl)ccc1[N+](=O)[O-],-1,3
Cc1cccc(C)c1Oc1ncccc1CNC(=O)c1cccnn1,9,6
CC(=O)N1CCN(Cc2ccc3n2CCCN=C3C2CCC2)CC1,21,11
NS(=O)(=O)c1ccc(OCCSc2ncccn2)cc1,-4,-4
CC1(C)[C@H]2CC=C(CCNC3CCN(c4cccc(NC(=O)c5cccnc5)c4)CC3)[C@@H]1C2,16,9
CCN1CCN(Cc2cnc(S(=O)(=O)CC)n2CCCc2ccccc2)[C@@H](C)C1=O,21,6
c1ccc(-n2ccnc2)c(CNc2ncnc3sc4c(c23)CCNC4)c1,9,8
C=CSc1sc(Cl)c(N(C)Cc2ccccc2)c1[N+](=O)[O-],-3,-6
COc1ccc(/C=N\N(CCO)C2=NS(=O)(=O)c3ccccc32)cc1,-13,-18
CCc1nc2n(n1)C(=O)C(C(c1cccc(C(F)(F)F)c1)N1CCN(CCO)CC1)S2 (stereo not drawn),-2,-5
O=C(N[C@@H]1CCCc2ccccc21)c1ccc(CSc2nnc3ccccn23)cc1,-2,-6
COc1ccc(S(=O)(=O)Nc2ccc3c(c2)OCCO3)cc1Br,16,11
CCN(CC)S(=O)(=O)c1ccc2c3c(cccc13)C(=O)N2C(=O)C(C)C,4,8
Cc1nn(C(=O)c2cccs2)c(C)c1CN1C(=O)c2ccccc2C1=O,3,-1
CSc1nsc(NC(=O)c2cccc(-n3ccnc3)c2)n1,0,-3
O/N=C\c1cn(CC(O)Cn2cnc3ccccc32)c2ccccc12 (stereo not drawn),-12,-18
c1ccc(-c2noc(CSc3nnnn3C3CC3)n2)cc1,2,5
CCc1ccc(NC(=O)N2CCN(C(=O)c3cc(-c4cccc(OC)c4)n(-c4ccccc4)c3C)CC2)cc1,-2,6
CCOC(=O)C1(C/C=C/c2ccccc2)CCCN(C(=O)Cn2cnnn2)C1 (stereo not drawn),4,-1
O=C(Nc1cccc(C#Cc2ccccc2)c1)N1CCOC(CO)C1 (stereo not drawn),3,0
CCCOc1c(Cl)cc(C(=O)NC2CCCC2)cc1OCC,2,13
CCNC(=O)N1CC(C(=O)Nc2cc(OC)cc(OC)c2)CC(c2cccc(C)c2)C1 (stereo not drawn),5,3
O=C(O)c1cc(-c2cccs2)nn1-c1ccc(Cl)c(Cl)c1,8,14
OC(c1ccc(F)c(F)c1)c1nc(-c2csc3ccccc23)cs1 (stereo not drawn),1,3
COc1ccc(OC)c(-c2cnc(-c3ccc(CNC(=O)c4cnc5c(c(C)nn5C)c4Cl)cc3)[nH]2)c1,-4,-9
Cc1cc(N2CCCCC2)n2nc(C)c(-c3ccccc3)c2n1,1,-2
CC(C)C1=NOC(CNC(=O)CCc2c[nH]c3ccccc23)C1 (stereo not drawn),1,-8
CCCCN(C(=O)c1ccco1)c1c(N)n(CCC)c(=O)[nH]c1=O,-2,-9
O=C(Cc1cc(F)ccc1F)Nc1c(F)cccc1NC1CC1,6,-1
Oc1ccccc1CN1CCC(n2cc(-c3ccc(F)cc3)nn2)CC1,2,-1
COc1ccc(/C=C/C(=O)N2CCC(n3c(=O)oc4ccc(Cl)cc43)CC2)c(Cl)c1OC,5,4
CCCCCCC(=O)N1CCN(c2cc(Oc3ccc(F)cc3C)ncn2)CC1C (stereo not drawn),4,5
Cc1cc(C(=O)CSc2nnc(NC3CC3)s2)c(C)n1CC(F)(F)F,-1,-1
Cc1oc(-c2cccc(Cl)c2)nc1Cn1ccnc1C,0,-1
N#CCOC(=O)c1ccccc1OCc1ccccc1Br,-3,-4
CCN1CCN(C(=O)CCCc2cn[nH]c2)C(C)C1=O (stereo not drawn),-3,-2
CCOC(=O)c1ccc(C)[n+](C)c1,-4,-3
COc1cc(CC(=O)NCC2(N(C)CCO)CCCCC2)ccc1C,2,3
CCCN1CC=C2C(C#N)C(=N)C(C#N)(C#N)C(c3cccs3)C2C1 (stereo not drawn),28,21
COCc1cc(C)nc(N/N=C\c2ccc(Cl)c(Cl)c2)c1C#N,-1,0
Cc1cc(NC(=O)CN2CCCc3cc(C(F)(F)F)ccc32)on1,-7,-9
CCOc1ccc(S(=O)(=O)N(C)c2ccc(O)cc2)cc1,6,1
CC1(C(=O)Nc2cnc3ccccc3c2)CCN1Cc1ccccc1OC(F)F (stereo not drawn),10,-1
COc1ccc(OC)c(C2SCC(=O)N(CC(=O)NCC3CCCO3)c3c2c(C(C)(C)C)nn3-c2ccccc2Cl)c1 (stereo not drawn),4,9

# Three entries from above, reformatted:
# The line under a structure holds: NPYLR7 agonist | NPYLR7 agonist max-min
CCOc1ccc(S(=O)(=O)N(C)c2ccc(O)cc2)cc1
    6 | 1
COCc1cc(C)nc(N/N=C\c2ccc(Cl)c(Cl)c2)c1C#N
    -1 | 0
CCCN1CC=C2C(C#N)C(=N)C(C#N)(C#N)C(c3cccs3)C2C1 (stereo not drawn)
    28 | 21

# The list goes on.
SMILES,NPYLR7 agonist,NPYLR7 agonist max-min
c1nc(-c2ccc(-n3cnnc3)cc2)cs1,3,0
CC(=NNc1nc(N)ncc1[N+](=O)[O-])c1cccs1,0,41
Nc1nc2nc(-c3ccc(Cl)cc3)cc(C(F)(F)F)n2n1,10,7
COc1cc(Br)c(CCNS(=O)(=O)N2CCCC(C)C2)cc1OC (stereo not drawn),3,1
COCCN1CCCC2(CCN(Cc3cccc(-n4cccn4)c3)C2)C1=O (stereo not drawn),21,9
CN1CCN(n2c3c(c(SCC(=O)N4CCc5ccccc54)nc2=O)CCC3)CC1,-3,-6
O=C(NCC1CCOCC1)c1ccc(-c2ccc(F)c(F)c2)c2ccoc12,-10,-14
CC(NC(=O)N1CCN(c2cccc(Cl)c2)CC1)C1CCCO1 (stereo not drawn),5,1
Cc1ccc(NC(=O)C2(C)CCN2C(=O)Cc2ccc(-c3ccccc3)cc2)cc1 (stereo not drawn),11,8
Cc1cccc(C(=O)NC(C(=O)NC2C3CCCCC32)C(C)C)c1 (stereo not drawn),0,-3
CN(C)C(CNCc1sc2ccccc2c1Cl)c1ccsc1 (stereo not drawn),1,-1
Cc1c(Br)c(C(F)(F)F)nn1CC(N)=O,-2,-3

# Single records, as listed above. Screens in order: NPYLR7 agonist	NPYLR7 agonist max-min
# Nc1nc2nc(-c3ccc(Cl)cc3)cc(C(F)(F)F)n2n1 in the list: 10	7
# O=C(NCC1CCOCC1)c1ccc(-c2ccc(F)c(F)c2)c2ccoc12 in the list: -10	-14
# Cc1cccc(C(=O)NC(C(=O)NC2C3CCCCC32)C(C)C)c1 (stereo not drawn) in the list: 0	-3
# c1nc(-c2ccc(-n3cnnc3)cc2)cs1 in the list: 3	0
# COc1cc(Br)c(CCNS(=O)(=O)N2CCCC(C)C2)cc1OC (stereo not drawn) in the list: 3	1

# Next part:
SMILES,NPYLR7 agonist,NPYLR7 agonist max-min
c1cc(-c2ccc(CN3CC[C@H]4CC[C@@H](C3)N4)s2)[nH]n1,12,-3
COc1cc(OC)cc(C(=O)N2CCNCC2)c1,1,0
Cc1cc(NC(=O)CS(=O)(=O)c2cn(Cc3ccccc3C)c3ccccc23)no1,13,11
Cc1cc(=O)n2nc(N)sc2n1,0,-2
Cc1c(Cl)ccc2sc(N(CCCn3ccnc3)C(=O)/C=C/c3cccs3)nc12,-11,-17
c1csc(-c2noc(CN3CCCC(c4nc5ccccc5o4)C3)n2)c1 (stereo not drawn),9,10
CC(NC(=O)c1cccs1)C(=O)N(C)Cc1ccsc1 (stereo not drawn),1,0
CCOc1ccc(-n2c(SCC(=O)Nc3ccccc3)nc3c(c2=O)SCC3)cc1,4,62
OC[C@@H](O)[C@H](O)[C@@H](O)[C@H](O)CO,-15,-1
Cc1ccc(NC2CCCN(C(=O)c3cc(=O)c4ccccc4o3)C2)cc1C (stereo not drawn),0&14,0&2
CC(C)n1ccnc1CNC(=O)CCc1c[nH]c2ccccc12,7,7
CCn1c(CN2CC(C)OC(C)C2)nc2c1c(=O)n(C)c(=O)n2C (stereo not drawn),5,3
Cc1ccccc1C1=NOC(CN(Cc2cccc(Cl)c2)C(=O)C2CC2)C1 (stereo not drawn),17,9

# Assay outcomes from PubChem BioAssay.

# An excerpt (hit frequency here may not be typical).
